D2 potentiator: Beta-Arrestin HTS for Positive Allosteric Modulators of the Human D2 Dopamine Receptor: Potentiators; D(2) dopamine receptor (Homo sapiens), P14416; DiscoveRx D2 beta-arrestin cells, luminescence, 90 min; 100% = 57 uM dopamine signal; potentiation, % (no concentration beside the values); 0.23% of 360,000 active; AID 624464, 2012; active = potentiation of 50% or more; inconclusive = 30% to 50%; inactive = 30% or less;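 further: compound concentration not given in the record; tested on top of an EC20 dose of dopamine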
Target sequence (P14416 whole entry, looked up): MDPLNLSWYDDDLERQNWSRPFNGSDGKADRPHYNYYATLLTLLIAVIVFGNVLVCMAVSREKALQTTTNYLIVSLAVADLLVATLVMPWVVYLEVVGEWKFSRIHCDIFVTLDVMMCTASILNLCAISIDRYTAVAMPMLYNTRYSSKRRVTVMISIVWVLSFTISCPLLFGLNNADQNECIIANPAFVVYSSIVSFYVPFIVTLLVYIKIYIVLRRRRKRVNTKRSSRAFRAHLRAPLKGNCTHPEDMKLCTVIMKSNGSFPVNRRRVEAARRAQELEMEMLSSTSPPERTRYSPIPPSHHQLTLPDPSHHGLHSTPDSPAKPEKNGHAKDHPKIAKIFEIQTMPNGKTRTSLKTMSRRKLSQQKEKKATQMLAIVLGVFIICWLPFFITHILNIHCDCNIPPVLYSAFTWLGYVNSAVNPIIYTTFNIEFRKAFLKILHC
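PathHunter beta-arrestin assay in DiscoveRx D2 cells. Compounds were added with an EC20 of dopamine (50 nM final) for 90 min at 37 deg C. Luminescence was read 1 h after detection reagent, with 57 uM dopamine as the EC100 control.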
gsp ag: qHTS for Agonist of gsp, the Etiologic Mutation Responsible for Fibrous Dysplasia/McCune-Albright Syndrome: qHTS; 0.13% of 340,000 active; gsp mutant cells, cAMP HTRF, 30 min; control for the full effect not named in the record; AID 624287, 2012; Potency, µM (doses to about 76.9 µM), for the others: top-dose activation (cAMP increase), hits mostly activators; active = well fitted activation curve with a large enough effect; inconclusive = small, poorly fitted or top-dose-only effect, or another doubt; inactive = no such curve, though single readings can be large or run the other way; cell line not stated here;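 further: phosphodiesterase inhibitor Ro 20-1724 added with compounds to block cAMP breakdown; potency means the concentration at half of the fitted maximal effect; nearly all actives have a fitted effect of over 60% in size; about a fifth of the inactives were tested at one dose only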
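Cells in DMEM/10% FBS with G418 were pretreated with compounds in DMSO plus […] (300 uM stock) for 30 min at 37C. cAMP was measured by HTRF (cAMP-d2 plus anti-cAMP antibody-K) after 30 min at room temperature.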
gsp antag: qHTS for Antagonists of gsp, the Etiologic Mutation Responsible for Fibrous Dysplasia/McCune-Albright Syndrome: qHTS | gsp-mutant cells, cAMP HTRF, 30 min; control for the full effect not named in the record | 0.4% of 340,000 active | Potency, µM (top dose mostly 76.9 µM), for the others: top-dose activity change, negative = inhibition, hits mostly inhibitors; active = falling curve of any shape with a large fitted effect; inconclusive = falling curve, mostly with a smaller effect; inactive = flat or rising curve; cell line not stated here;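 further: intracellular cAMP measured with PDE inhibitor Ro 20-1724 present during compound exposure; potency means the concentration at half of the fitted maximal effect; on the % scale 0 is the no-effect control and ±100 the full control effect; nearly all actives have a fitted effect of over 65% in size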
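G418-selected cells were plated in DMEM/10% FBS for 16-24 h at 37C, then treated with compounds plus the PDE inhibitor […] (300 uM solution added) for 30 min at 37C. Intracellular cAMP was measured by HTRF after 30 min lysis at room temperature.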
D2 agonist: Beta-Arrestin HTS for Positive Allosteric Modulators of the Human D2 Dopamine Receptor: Agonists; D(2) dopamine receptor (Homo sapiens), P14416; DiscoveRx PathHunter D2 beta-arrestin, luminescence, 90 min; 100% = 57 uM dopamine signal; activation, % (concentration not given with the values); 0.084% of 360,000 active; in the data active = activation above about 40%; inconclusive = about 15% to 40%; inactive = below about 15%; further: compound concentration not given in the record; the text of the record calls up to 30% inactive
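Agonist mode: compounds alone added to overnight-plated D2 PathHunter cells for 90 min at 37 C, with 57 uM final dopamine (EC100) defining full response. Beta-arrestin recruitment detected by chemiluminescent reagent, read after 1 h at ambient temperature.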
CtBP-E1A inh: qHTS Assay for Inhibitors of the CtBP/E1A Interaction; CtBP / adenovirus E1A interaction (AlphaScreen); AlphaScreen GST-E1A/His-CtBP binding, 1536-well; hits give low values; control for the full effect not named in the record; 0.49% of 340,000 active; activity change, % (test concentration not listed); in the data active means activity change below about -65%; inconclusive means about -30% to -65%; inactive means above about -30%; further: on the % scale 0 is the no-effect control and ±100 the full control effect; compound concentration not given in the record
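In 5 uL wells, 23 nL compound meets equimolar GST-E1A and His-CtBP (5X stock 125 nM each) for 2 h, 37 °C. Beads (5X, 50 ug/mL) then 1 h, 37 °C, dark.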
Six1-Eya2 inh: qHTS Assay for Inhibitors of the Six1/Eya2 Interaction | Homeobox protein SIX1 (Homo sapiens) + Protein phosphatase EYA2 (Homo sapiens), … | activity change, % (concentration not given with the values) | AID 651725, 2012 | AlphaScreen GST-Six1/His-Eya2 binding, biochemical; hits give low values; control for the full effect not named in the record | 0.56% of 360,000 active; in the data active = activity change below about -65%; inconclusive = about -30% to -65%; inactive = above about -30%; further: on the % scale 0 is the no-effect control and ±100 the full control effect
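Six1/Eya2 binding was read as AlphaScreen signal after compounds were pinned into GST-Six1 plus His-tagged Eya2 (5X stock 250/500 nM) in pH 8.0 Tris/NaCl/TCEP buffer, beads added, then incubated 1 h, 37 C, dark.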
The depositor's hits bear a star; ? = inconclusive; nt = not tested or not shown; [ ] = another dose, or the depositor's remark.

SMILES	D2 potentiator	gsp ag	gsp antag	D2 agonist	CtBP-E1A inh	Six1-Eya2 inh
Cc1ccc(S(=O)(=O)Nc2ccc(Cl)cn2)cc1C	-3	-30%	-3%	2.0	6	-1
Cc1c(-c2ccccc2)nnn1-c1ccc(F)cc1F	-3	11%[15.4 µM]	11%	-3.7	-7	-17
CCOC(=O)c1c(NC(=O)c2ccc(S(=O)(=O)N(C)CC3CCCO3)cc2)sc2c1CC(C)(C)NC2(C)C (configuration not stated)	-9	-32%[inhibitor]	-13%	0.7	5	6
COC(=O)NNC(=S)NCc1ccccc1	-11	12%	-8%	-4.1	6	5
COc1cc(C2c3c(oc4ccccc4c3=O)C(=O)N2CCN2CCOCC2)cc(OC)c1OC (configuration not stated)	2	9%	4%	-2.2	11	6
CN(C(=O)CSc1nnc(-c2ccccc2F)o1)c1ccccc1	0	-1%[15.4 µM]	2%	-3.1	4	0
COc1cccc(CC(=O)NC2CCCN(Cc3ccccc3F)C2)c1 (configuration not stated)	-3	2%	12%	-0.4	9	-3
CCc1noc(C)c1C(=O)Nc1ncc(C)s1	-7	-9%	2%	-1.9	8	0
O=C(NCC1CCCO1)c1cc([N+](=O)[O-])ccc1Cl (configuration not stated)	-1	-13%	8%	3.6	3	1
O=C(CSc1nnc(Cc2cc(=O)[nH]c(=O)[nH]2)n1-c1ccccc1)N1CCCCC1	2	-7%	7%	-2.4	5	2
CCCCCC(=O)NNC1CC(=O)N(c2cccc(OCC)c2)C1=O (configuration not stated)	-2	1%[15.4 µM]	5%	1.8	-1	7
COc1ccc(-c2cc([C@H]3[C@H]4C=CC[C@@H](C)[C@@H]4C(=O)N3Cc3ccccc3)ccc2F)cc1	-7	nt	-8%	-4.2	-27	-9
Cc1cccc(N2CCN(C(=O)COc3ccc4ccc(=O)oc4c3)CC2)c1C	-7	-18%	-30%	4.6	nt	-8
COc1ccc(OC)c(NC(=O)c2nnn(Cc3ccccc3C)c2N)c1	-6	-36%	-9%	0.8	-26	-28
Cn1c(-c2ccc(C(F)(F)F)cc2)cc2onc(-c3ccccc3)c2c1=O	0	nt	3%	0.5	12	0
Cc1cc(/C=C2/C(=O)N(C)C(=S)N2C)c(C)n1C1CC1	-7	4%	-4%	1.4	nt	-1
CC(C)(C(=O)O)n1cncn1	-8	10%[15.4 µM]	14%	-3.7	0	8
COc1cc(CCC(=O)Oc2ccc(C(C)=O)cc2)cc(OC)c1OC	-20	-3%	6%	5.2	0	19
O=C(CN(c1cccc(Cl)c1)S(=O)(=O)c1ccc(Cl)cc1)N1CCc2ccccc2C1	-7	-2%[15.4 µM]	5%	-1.3	16	0
O=C(O)/C=C/C(=O)NCCc1cccc(Cl)c1	-4	10%	9%	1.2	nt	3
CCOc1ncccc1C(=O)OC(C)C(=O)Nc1ccc(N2CCOCC2)cc1 (configuration not stated)	-3	-14%	-3%	5.3	nt	-1
COc1ccc(NC(=O)N(C)C[C@H]2Oc3c(NS(=O)(=O)c4ccc(F)cc4)cccc3C(=O)N([C@H](C)CO)C[C@@H]2C)cc1	-2	nt	-1%	-3.5	0	-1
c1ccc(-c2csc3ncnc(NCc4ccccn4)c23)cc1	-6	-59%[inhibitor]	-10%	-1.1	5	-8
COc1ccc(C(=O)/C=C/C(=O)N(CC(=O)NC2CCCCC2)Cc2ccccc2OC)c(O)c1	-23	-1%[15.4 µM]	nt	-7.8	-2	2
COC(=O)c1[nH]c2ccccc2c1NC(=O)c1ccccc1[N+](=O)[O-]	-14	2%[15.4 µM]	-1%	-2.0	0	4
COc1ccccc1N1CCN(CCN(C(=O)c2ccc(F)cc2)c2ccccn2)CC1	-35	nt	-11%	-3.1	-5	-12
Cn1c(=O)n(C)c2cc(C(=O)Nc3ccc4c(c3)OCO4)ccc21	-5	1%	7%	4.3	?	?
CCOC(=O)Cn1ccc(O)c(Cc2ccc(Cl)cc2Cl)c1=O	-22	-1%	-2%	0.7	10	4
COc1ccc(NC(=O)CSc2nnc(-c3ccncc3)o2)c(OC)c1	0	-2%[15.4 µM]	5%	-2.0	4	1
O=C1CC(N2CCN(c3ccccc3)CC2)C(=O)N1c1cccc(Br)c1 (configuration not stated)	-4	-11%	-13%	-5.8	-1	0
O=S(=O)(Nc1ccc(F)cc1)c1ccc(NC(=S)Nc2ccccc2)cc1	-5	9%	4%	-4.2	1	4
COC(=O)Nc1ccc(S(=O)(=O)Nc2cccc3ccccc23)cc1	9	4%	4%	0.5	2	-3
COC(=O)C1CCN(c2nc3ccccc3nc2C(C#N)C(=O)NCCc2ccccc2)CC1 (configuration not stated)	-32	-5%	-3%	-1.0	6	-1
Cn1c(NC(=O)CCc2ccccc2)cc(=O)n(C)c1=O	-4	1%	10%	2.1	-24	3
COc1c(O)ccc(C2NC(=O)NC(C)=C2C(=O)Nc2ccccc2C)c1[N+](=O)[O-] (configuration not stated)	-3	-3%[15.4 µM]	13%	-1.9	-3	0
COc1ccc(CC(C)CC(=O)Nc2ccc(OC)cc2)cc1 (configuration not stated)	-6	7%[15.4 µM]	2%	2.7	-19	1
CCn1c(=O)c2ccccc2n(Cc2cccc([N+](=O)[O-])c2)c1=O	-7	?	-5%	-3.8	-13	8
Cc1ccc(NC(=O)CCC(=O)N2CCOc3ccccc32)c(Cl)c1	-9	25%	-5%	-2.3	5	2
Cc1nc(N2CCCCC2)c2sc(=S)n(C)c2n1	-3	?	-4%	-6.1	7	10
CC(C)N(Cc1cc2ccccc2[nH]c1=O)C(=O)c1cccc([N+](=O)[O-])c1	0	14%[15.4 µM]	2%	-1.1	4	5
O=C(NCCN1CCN(C(=O)c2cccc([N+](=O)[O-])c2)CC1)C(=O)NCc1ccc(Cl)cc1	?	-4%	8%	-0.6	8	-2
CCn1c(=O)c(C(=O)NCCCc2ccccc2)c(O)c2ccccc21	-1	-28%	-2%	-2.2	10	19
Cc1cc(C)cc(C(=O)/C=C2\NC(=O)CS2)c1	-8	?	2%	-4.9	-8	2
CCN(CC)C(=O)c1ccc(Oc2ccc([N+](=O)[O-])cc2Cl)cc1	8	0%[15.4 µM]	-32%	-1.8	0	-5
Cc1cc(C(=O)NNC(=O)CCC2CCCCC2)c(C)o1	-1	-117%[inhibitor]	9%	-2.1	nt	-2
CCCC(C(=O)NCCc1ccc(S(N)(=O)=O)cc1)c1ccccc1 (configuration not stated)	-3	16%	5%	-1.2	5	9
Cc1cc(C(=O)CCC(=O)Nc2ncccc2O)c(C)s1	-17	7%[15.4 µM]	8%	-5.1	-15	-24
O=C(Cc1ccc(Cl)cc1Cl)NCc1cccnc1	-3	17%	4%	2.2	7	9
CCNC(=O)CC1C(=O)N(c2ccccc2)C(=O)N1CCOC (configuration not stated)	-3	-21%	6%	-5.2	-14	9
COc1cccc(/C=C/C(=O)OCC(=O)NC2CCCC2)c1	-8	6%	nt	-3.3	-9	4
O=C(Cc1ccccc1)Nc1cccc(N2CCCC2)c1	-26	-28%	8%	-0.9	-7	-3
CCOc1ccc(C(=O)Nc2c3c(nn2-c2ccc(C)cc2)CS(=O)C3)cc1OCC (configuration not stated)	-2	-6%	-7%	-0.5	-3	1
CCN(C(=O)CSc1cc(C)c2cccc(C)c2n1)C1CCS(=O)(=O)C1 (configuration not stated)	-1	-7%[15.4 µM]	nt	-4.2	0	1
COc1ccc(NS(=O)(=O)c2ccc(NC(=O)c3ccccc3)cc2)nn1	-7	6%[15.4 µM]	0%	-1.4	nt	1
COc1ccc(NCC(=O)N/N=C/C=C\c2ccccc2)cc1	8	7%	12%	2.4	-3	-13
CC(=O)Nc1cccc(C(=O)NNC(=O)c2ccccc2-n2cccc2)c1	-1	-24%	9%	4.9	4	-1
CC(C)(C)NC(=O)COc1coc(CN2CCN(C(=O)c3ccco3)CC2)cc1=O	0	16%[15.4 µM]	8%	3.2	3	1
COc1cc(NC(=O)CCNC(=O)Cn2cnc3ccccc3c2=O)cc(OC)c1OC	5	-24%	5%	-3.8	4	8
CCCC(=O)N1N=C(c2ccccc2)CC1c1cn(C)c2ccccc12 (configuration not stated)	-22	-3%	-24%	-3.8	11	-20
CCCC(=O)Nc1nc(C)c(-c2csc(Nc3ccccc3OC)n2)s1	-14	-34%[inhibitor]	-10%	3.1	nt	-16

Whole records, quoted from the list. Screens in order: D2 potentiator	gsp ag	gsp antag	D2 agonist	CtBP-E1A inh	Six1-Eya2 inh
`Cc1c(-c2ccccc2)nnn1-c1ccc(F)cc1F` across the screens: -3	11%[15.4 µM]	11%	-3.7	-7	-17
`Cc1cccc(N2CCN(C(=O)COc3ccc4ccc(=O)oc4c3)CC2)c1C` across the screens: -7	-18%	-30%	4.6	nt	-8
`COc1cc(C2c3c(oc4ccccc4c3=O)C(=O)N2CCN2CCOCC2)cc(OC)c1OC` (configuration not stated) across the screens: 2	9%	4%	-2.2	11	6
`CCCC(=O)N1N=C(c2ccccc2)CC1c1cn(C)c2ccccc12` (configuration not stated) across the screens: -22	-3%	-24%	-3.8	11	-20
`COc1cccc(/C=C/C(=O)OCC(=O)NC2CCCC2)c1` across the screens: -8	6%	nt	-3.3	-9	4

Later entries
SMILES	D2 potentiator	gsp ag	gsp antag	D2 agonist	CtBP-E1A inh	Six1-Eya2 inh
CCSc1c([N+](=O)[O-])c(=O)n(-c2ccccc2)c2ccccc12	-11	-28%	-1%	-0.1	nt	-2
COc1ccc(C2CC(=O)Oc3cc(C)c(Cl)c(C)c32)cc1 (configuration not stated)	nt	nt	-12%	-3.6	5	2
O=C(Nc1cccc(Cl)c1)c1ccc2ncsc2c1	-20	1%	-8%	-2.1	-18	-23
NC(=O)c1ccc(NC(=O)CSC2=Nc3ccccc3C3CC=NN23)cc1 (configuration not stated)	-34	-6%	22%	-2.9	-1	-7
O=C(COC(=O)COc1ccccc1)Nc1ncc([N+](=O)[O-])s1	-15	-3%	6%	-6.5	6	-13
CCOC(=O)C1=C(NC#N)OC(C)=C(C)C1c1ccc(O)cc1 (configuration not stated)	5	25%	-13%[15.4 µM]	-2.6	14	1
COc1ccccc1NC(=O)COC(=O)c1c(NC(C)=O)sc(C)c1C	-5	-17%	nt	-0.8	-1	-1
COc1ccc(O)c(/C=N/N=C/c2cccc([N+](=O)[O-])c2)c1	0	-37%	-7%	3.7	-5	-7
CCCCN(C(=O)CC1CCCCC1)c1c(N)n(CC(C)C)c(=O)[nH]c1=O	-15	-24%	-4%	3.4	-2	4
